# Rce1 inhib = inhibitors of yeast Ras-converting enzyme | AID 2563 | 290,000 tested, 0.27% active | calls only | yeast membranes, quenched prenylated peptide cleavage fluorescence | Q03530;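 active = fall in fluorescence gain of 50% or more versus controls, with final raw signal at or below 3038400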;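 note: plate controls were neutral control wells for no effect and wells lacking membranes for full effect; tested at 10 µM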
# Target sequence (Q03530 whole entry, looked up): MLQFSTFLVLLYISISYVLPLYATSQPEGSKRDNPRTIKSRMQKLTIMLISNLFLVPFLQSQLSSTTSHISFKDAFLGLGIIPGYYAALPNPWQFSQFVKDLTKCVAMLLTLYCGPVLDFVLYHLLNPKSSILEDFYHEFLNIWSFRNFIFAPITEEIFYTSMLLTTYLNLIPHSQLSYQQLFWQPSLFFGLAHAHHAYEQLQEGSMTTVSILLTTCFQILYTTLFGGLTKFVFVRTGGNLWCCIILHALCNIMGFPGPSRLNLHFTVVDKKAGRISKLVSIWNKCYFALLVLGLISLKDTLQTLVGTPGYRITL
# PABP FP inh = blocks human PABP binding to poly(A) RNA; fluorescence polarization; inhibition, % at 35 µM; P11940; 290,000 tested, 1% active;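 active = 50% or more with normal probe brightness, or confirmed in later tests; about a fifth of its hits are not listed in these tables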;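 note: calls also rest on retests at 20 µM and on dose response follow-up; controls were probe without protein and protein plus probe with vehicle; some compounds called inactive have numbers as strong as hits; many hits fall short of the cut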
# Target sequence (P11940 whole entry, looked up): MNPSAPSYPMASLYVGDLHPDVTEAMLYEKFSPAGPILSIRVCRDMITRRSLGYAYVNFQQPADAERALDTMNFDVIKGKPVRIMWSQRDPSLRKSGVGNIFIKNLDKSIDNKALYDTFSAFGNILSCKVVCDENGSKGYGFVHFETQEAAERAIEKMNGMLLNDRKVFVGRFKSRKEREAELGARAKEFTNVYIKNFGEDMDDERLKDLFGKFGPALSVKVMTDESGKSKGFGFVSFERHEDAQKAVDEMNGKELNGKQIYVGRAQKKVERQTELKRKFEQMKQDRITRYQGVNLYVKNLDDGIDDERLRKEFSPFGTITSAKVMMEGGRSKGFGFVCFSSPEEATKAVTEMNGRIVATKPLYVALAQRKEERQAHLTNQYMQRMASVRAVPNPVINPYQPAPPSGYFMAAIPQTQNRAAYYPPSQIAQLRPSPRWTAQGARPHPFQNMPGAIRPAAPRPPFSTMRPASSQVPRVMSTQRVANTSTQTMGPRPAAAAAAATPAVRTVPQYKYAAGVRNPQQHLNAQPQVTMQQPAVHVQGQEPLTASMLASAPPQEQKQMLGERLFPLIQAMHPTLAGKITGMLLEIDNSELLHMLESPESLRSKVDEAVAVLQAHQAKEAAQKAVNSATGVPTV
# MT1-MMP act inh = inhibitors of human MT1-MMP activation. HT1080 RFP-PRO-GFP cells, GFP/RFP ratio fluorescence, overnight; percent of plate control window, DMSO zero. GFP/RFP ratio change, % at 20 µM. P50281. AID 651647. 360,000 tested, 0.061% active;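 active = GFP/RFP ratio change of at least 30% with cell ATP level not reduced by more than half and red fluorescence within 50% of control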; note: strong numbers were not always called active
#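 Read-out: GFP/RFP fluorescence ratio; Test system: RFP-PRO-GFP reporter HT1080 cells; Compound dosing: single-point 20 µM compound, 1% DMSO; Times: overnight compound exposure at 37 °C.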
# eIF4H FP inh = inhibitors of RNA binding by human eIF4H; eIF4H fluorescence polarization binding assay; Q15056; 290,000 tested, 0.94% active; inhibition, % at 35 µM; AID 2012;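 active = 50% or more with normal probe brightness, or confirmed in later tests; about a fifth of its hits are not listed in these tables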;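 note: calls also rest on retests at 20 µM and on dose response follow-up; 0% = protein and probe with vehicle and 100% = probe without protein; strong numbers were not always called active; many hits fall short of the cut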
# CSC inhib = cancer stem cell inhibition | AID 2717 | cancer stem cell-like cells viability, luminescence | inhibition, % at 7.5 µM | 300,000 tested, 1.1% active;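 active = mean at 75% or more and at least half the replicates too; tested in HMLE shEcad cells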;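 note: 0% = median of negative and 100% = median of positive control wells; the first replicate is given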
# HIV Env fusion = inhibitors of HIV Env-mediated cell fusion; HeLa-JRFL Env/CEM21 cell fusion, luciferase; inhibition, % at 12.3 µM; 360,000 tested, 1.1% active; AID 651610;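 active = mean replicate inhibition score of at least 50 and every replicate individually at or above 50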;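 note: 0% = plate neutral controls and 100% = maraviroc near 300 nM; one replicate is shown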
# Yeast UUG start = modulators of start codon recognition fidelity in yeast | S. cerevisiae UUG-firefly luciferase reporter, luminescence/redox ratio | 350,000 tested, 0.13% active | AID 602363 | activity score, % at 18.7 µM;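 active = replicate mean at a twofold rise or more, about +100% in these data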;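 note: firefly luciferase made from a UUG start codon reports start codon fidelity; reporter light over untreated wells divided by growth signal over untreated wells; some hits fall short of that in this replicate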
# eIF4H FP inh retest = further read-out of eIF4H FP inh, marked with its call; inhibition, %; compound at 20 µM; confirmation average;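 mean of two retest wells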
# PABP FP inh retest = further read-out of PABP FP inh, marked with its call; inhibition, %; compound at 20 µM; confirmation repeats;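 mean of two retest wells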
# MT1-MMP act inh RFP = second read-out of MT1-MMP act inh, no call of its own (marks repeat the call); RFP signal change, %; measured here: RFP expression control read;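 0 = vehicle wells; hits needed this value within 50% of zero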
# An asterisk follows results filed as active; i = inactive; / = no result given. These rows are one share of the data, so the mix of outcomes need not match the whole.
SMILES,Rce1 inhib,PABP FP inh,MT1-MMP act inh,MT1-MMP act inh RFP,eIF4H FP inh,CSC inhib,HIV Env fusion,Yeast UUG start,others
NNC(=O)CN(CCc1ccccc1)S(=O)(=O)c1ccc(Cl)cc1,i,4,-4,-3,5,7,10,/,
CCCCN1CN(S(=O)(=O)c2ccc(OC)cc2)c2nc3ccccc3nc21,i,0,-4,0,-4,0,5,-8,
Cc1cc(C(=O)O)cc(S(=O)(=O)N2CCOCC2)c1C,/,5,-1,4,-3,-20,-80,/,
O=C(Nc1ccccc1[N+](=O)[O-])c1cc2ccccc2nc1Cl,i,4,-3,0,-4,/,-12,-9,
CC(=O)Nc1cc(C(=O)N2CCCC2)ccc1S(=O)(=O)c1ccc(Cl)cc1,i,0,-3,-1,-4,-6,1,-12,
COc1ccccc1N(C)S(=O)(=O)c1ccc(C(=O)Nc2cccc(Br)c2)cc1,/,/,9,-10,/,35,17,-20,
COc1ccc(S(=O)(=O)NC(C)C(=O)N2CCCCCC2)cc1 (centres undefined),i,-4,-2,1,-4,12,-3,-3,
O=C(NCc1ccco1)/C(=C\c1ccc(F)cc1)NC(=O)c1ccco1,i,3,1,4,-8,7,-5,-20,
CN(C)c1ccc(-c2cc3ccccc3c(=O)o2)cc1,/,/,2,-2,/,10,-319,-29,
C[C@@H]1[C@H]2CCCC[C@H]2CN(C(=O)OC(C)(C)C)[C@@H]1CC(=O)c1ccccc1,/,/,-4,-5,/,/,46,7,
CC(=O)Nc1nc(SCc2ccc(Cl)cc2Cl)n[nH]1,i,-7,3,-1,-8,0,25,-17,
COc1ccccc1N1CCN(C(=O)c2cc3n(n2)C(C(F)(F)F)CC(c2ccco2)N3)CC1 (centres undefined),i,14,-5,2,2,-14,/,2,
O=C(NCCSc1c[nH]c2ccccc12)C1CC1,i,4,2,7,2,-4,-11,-7,
CCOc1ccc(/C=C2\N=C(c3cccs3)OC2=O)cc1OC,i,30,/,/,-13,-18,/,/,
CCc1cc(=O)oc2c(C)c(OCC(=O)N3CC[C@@]4(O)CCCC[C@H]4C3)ccc12,/,-1,0,-1,-1,-4,/,7,
O=C(CSc1nnc(-c2ccncc2)o1)Oc1ccccc1,i,18,0,3,4,-24,-11,-5,
COc1ccc(C(=O)NCCCN2CCCC2=O)cc1,i,18,1,3,-1,3,/,-10,
CC(C)(C)N1CC2(c3ccccc3)CN(C(C)(C)C)CC(c3ccccc3)(C1)C2=O,i,3,-1,9,-1,-8,-29,8,
CCOc1ccc(Oc2ccc(NC(=O)CSc3nncn3C)cc2)cc1,/,/,4,-3,/,/,-22,-15,
O=S(=O)(Nc1ccc(OC(F)(F)F)cc1)c1cccc2nonc12,i,3,1,0,3,-8,11,/,
Cc1cc(NC(=O)Cc2csc(-c3ccccc3)n2)ccc1Br,i,14,7,-5,-4,6,19,-19,
Oc1cccc(/C=N/Nc2cc(N3CCCC3)nc(N3CCCC3)n2)c1,i,68,-4,-5,29*,-1,/,/,eIF4H FP inh retest=55*;PABP FP inh retest=36
O=C(c1cccc(COc2cccc3ccccc23)c1)N1CCCC1,i,1,3,1,0,17,-89,25,
CC(C)(C)c1ccc(C(=O)CCCSC2=C(C#N)C(c3ccco3)C3=C(CCCC3=O)N2)cc1 (centres undefined),/,19,-31,-30,6,/,79*,-23,
Cc1ccccc1/C=N/NC(=O)c1ccc(-n2cnnn2)cc1,/,/,1,-1,/,4,/,-10,
SMILES,Rce1 inhib,PABP FP inh,MT1-MMP act inh,MT1-MMP act inh RFP,eIF4H FP inh,CSC inhib,HIV Env fusion,Yeast UUG start,others
Cc1cc(C)cc(N2C(=O)CC(c3ccccc3)CC2=O)c1,/,/,1,2,/,-4,-25,-17,
COc1ccccc1C(=O)N1CCN(c2nc3cc(C)c(C)cc3cc2C#N)CC1,i,3,-15,-14,1,24,29,-8,
CC(C)C(c1nnnn1Cc1cccs1)N1CCN(C2CCCC2)CC1 (centres undefined),/,-12,6,4,-7,32,19,-17,
CC1CCN(C(=O)CN2C(=O)C(=O)c3ccccc32)CC1,i,1,0,4,11,12,/,-5,
O=C(C1=C[C@@H](c2ccc3c(c2)OCO3)C[C@@H](OCc2ccc(CO)cc2)O1)N1CCOCC1,i,-10,1,3,3,-3,-13,-15,
CC(=O)OCC(=O)C1(O)CCC2C3CCC4=CC(=O)C=CC4(C)C3C(O)CC21C (centres undefined),i,7,-5,2,0,-8,-25,0,
CN(Cc1ccccc1)C(=O)c1ccc2nc([C@H]3C[C@H](O)[C@@H](CO)O3)[nH]c2c1,/,/,2,2,/,/,1,-12,
O=C1OCCC1Sc1nnc(-c2ccc(Cl)cc2Cl)o1 (centres undefined),i,8,4,2,-2,-4,59*,/,
Cc1ccc(Nc2nc(Cl)nc(NC(C)(C)C)n2)cc1,i,-1,-8,-6,0,9,-22,-1,
O=C(NCCN1CCOCC1)C(=O)c1c[nH]c2ccccc12,i,-9,0,2,-4,-14,-23,-14,
Cc1ccccc1C(=O)NC(C(N)=O)P(=O)(OC(C)C)OC(C)C (centres undefined),i,-3,0,0,0,-8,6,/,
COc1ccc(CNC2CCCc3ccccc32)c(OC)c1 (centres undefined),i,4,1,0,14,-9,-73,-16,
Cc1cc(C)n(C2=NS(=O)(=O)c3ccccc32)n1,i,13,1,1,-8,-4,-5,-20,
CC1(C(=O)NCCc2ccccc2)Cc2c(-c3ccccc3)ccnc2O1 (centres undefined),/,/,3,-2,/,/,21,7,
COc1ccc(CCNC(=O)CCc2nc3sc4c(c3c(=O)[nH]2)CCCC4)cc1,i,7,-6,0,30,7,/,-2,
CC(C)(C)Cc1c(-c2cccc(Br)c2)nc2ccc(Br)cn12,/,/,28,45,/,/,17,14,
COc1cccc(NC(=O)Cn2cc(C(=O)C3CC3)c3ccccc32)c1,i,/,6,1,/,-8,-1,5,
CCOC(=O)N1CCc2c(sc(NC(=O)CN3CCOCC3)c2C(=O)Nc2ccccc2)C1,i,6,1,0,-2,13,-18,/,
O=C(NC(c1ccccc1)c1ccccc1)N1CCOCC1,i,-8,0,1,-8,/,-10,/,
Cc1ccc(=O)n(C(C(=O)NCc2ccco2)C(=O)c2ccc(F)cc2)c1 (centres undefined),i,1,1,7,-8,-15,-46,-12,
O=C(NC(=S)Nc1cc(C(F)(F)F)ccc1N1CCOCC1)c1ccco1,i,-2,-4,-8,-10,-2,23,-7,
O=C(NC1CCCCC1)N1CCN(c2nc(-c3ccccc3)cs2)CC1,i,0,2,-12,-5,13,12,-5,
O=c1c2ccccc2nc(SCc2ccc([N+](=O)[O-])cc2)n1-c1ccccc1,i,-8,-8,-10,-3,1,-1,/,
CNC(C)c1cc(OC)ccc1OC (centres undefined),i,4,2,5,7,-15,/,-44,
COc1cc(NC(=O)COC(=O)c2ccc(S(=O)(=O)N3CC(C)CC(C)C3)cc2)c(C)cc1[N+](=O)[O-] (centres undefined),i,-9,1,-1,-24,4,/,-6,
SMILES,Rce1 inhib,PABP FP inh,MT1-MMP act inh,MT1-MMP act inh RFP,eIF4H FP inh,CSC inhib,HIV Env fusion,Yeast UUG start,others
Cc1nc(C(=O)N/N=C/c2[nH]ncc2Br)cs1,i,6,1,-5,9,0,5,/,
CC(C)(C)OC(=O)C(C(=O)OC(C)(C)C)c1ccc(Cl)nn1,i,0,2,0,-9,-5,10,-4,
Cc1cccc(OCC(=O)Nc2cc(S(=O)(=O)N3CCOCC3)ccc2N2CCCC2)c1C,i,/,-6,-11,/,6,-27,-16,
COc1ccccc1N1CCN(Cc2cc(=O)c(OCC(=O)NC3CCCC3)co2)CC1,i,/,5,0,/,-4,11,/,
CCN(CC)S(=O)(=O)c1cccc(C(=O)N/N=C/c2ccc(N3CCOCC3)cc2)c1,i,-3,0,3,2,15,-28,-14,
CCOC(=O)c1cnc(-n2nc(C)cc2C)nc1NC(C)c1ccccc1 (centres undefined),i,-4,-11,-13,-4,/,-9,-43,
Cc1ccc(CNC(=O)CCc2c(C)nc3ncnn3c2C)cc1,i,-2,2,4,-7,-10,-77,/,
N#C/C(=C(/O)COc1cccc2ccccc12)c1nc2ccccc2[nH]1,i,-9,6,9,0,4,/,-29,
CN(Cc1ccccc1)C(=O)C1CCN(S(=O)(=O)c2cccc3nsnc23)CC1,i,-8,-2,2,-4,3,3,-23,
CC(NC(=O)C1CCCCC1)C(=O)NC1=NCCS1 (centres undefined),i,-10,1,3,-9,1,-23,/,
COc1ccc(C(=S)N2CCOCC2)cc1OC(=O)c1cccc([N+](=O)[O-])c1,i,0,0,3,-4,-8,-5,/,
CCC(=O)NC(Nc1cccc(C)n1)(C(F)(F)F)C(F)(F)F,i,-1,2,2,1,-9,-34,-10,
O=C(NC(Nc1cc(C(F)(F)F)ccc1Cl)C(=O)c1ccccc1)c1ccccc1 (centres undefined),i,-4,-19,-14,-9,13,-153,-15,
CCCNS(=O)(=O)c1ccc(OCC(=O)OC)cc1,i,-1,6,3,-11,/,0,-2,
COc1cc(/C=N/n2c(SC)nnc(C(C)(C)C)c2=O)ccc1O,i,7,6,6,7,/,/,-17,
Cc1nn(CC(=O)N(C)C2CCS(=O)(=O)C2)c(C)c1[N+](=O)[O-] (centres undefined),i,/,2,4,/,-1,/,/,
CCOC(=O)c1c(C)n(C(=O)c2ccco2)c(=O)n1C(=O)c1ccco1,i,10,3,-12,6,-16,-96,-21,
COc1cc(CNn2c(C)n[nH]c2=S)cc(Cl)c1OCC(=O)NC(C)(C)C,/,2,7,-5,14,-13,21,-5,

# An excerpt from above in order of formula weight, high to low.
SMILES,Rce1 inhib,PABP FP inh,MT1-MMP act inh,MT1-MMP act inh RFP,eIF4H FP inh,CSC inhib,HIV Env fusion,Yeast UUG start,others
COc1ccccc1N1CCN(Cc2cc(=O)c(OCC(=O)NC3CCCC3)co2)CC1,i,/,5,0,/,-4,11,/,
CCOC(=O)c1cnc(-n2nc(C)cc2C)nc1NC(C)c1ccccc1 (centres undefined),i,-4,-11,-13,-4,/,-9,-43,
CCCNS(=O)(=O)c1ccc(OCC(=O)OC)cc1,i,-1,6,3,-11,/,0,-2,

# Structures listed so far that have a Cl atom (nine):
SMILES,Rce1 inhib,PABP FP inh,MT1-MMP act inh,MT1-MMP act inh RFP,eIF4H FP inh,CSC inhib,HIV Env fusion,Yeast UUG start,others
NNC(=O)CN(CCc1ccccc1)S(=O)(=O)c1ccc(Cl)cc1,i,4,-4,-3,5,7,10,/,
O=C(Nc1ccccc1[N+](=O)[O-])c1cc2ccccc2nc1Cl,i,4,-3,0,-4,/,-12,-9,
CC(=O)Nc1cc(C(=O)N2CCCC2)ccc1S(=O)(=O)c1ccc(Cl)cc1,i,0,-3,-1,-4,-6,1,-12,
CC(=O)Nc1nc(SCc2ccc(Cl)cc2Cl)n[nH]1,i,-7,3,-1,-8,0,25,-17,
O=C1OCCC1Sc1nnc(-c2ccc(Cl)cc2Cl)o1 (centres undefined),i,8,4,2,-2,-4,59*,/,
Cc1ccc(Nc2nc(Cl)nc(NC(C)(C)C)n2)cc1,i,-1,-8,-6,0,9,-22,-1,
CC(C)(C)OC(=O)C(C(=O)OC(C)(C)C)c1ccc(Cl)nn1,i,0,2,0,-9,-5,10,-4,
O=C(NC(Nc1cc(C(F)(F)F)ccc1Cl)C(=O)c1ccccc1)c1ccccc1 (centres undefined),i,-4,-19,-14,-9,13,-153,-15,
COc1cc(CNn2c(C)n[nH]c2=S)cc(Cl)c1OCC(=O)NC(C)(C)C,/,2,7,-5,14,-13,21,-5,
